PINK1 modulator: PINK1 expression modulation | Potency, µM (series often up to 76.6 µM), for the others: at the top dose activation (PINK1 increase), hits mostly activators | 0.2% of 410,000 active | PINK1 immunofluorescence, high-content cytometry, 24 h | AID 624263; active = well fitted activation curve with a large enough effect; inconclusive = small, poorly fitted or top-dose-only effect; inactive = flat fitted curve, though single readings scatter; cell line not stated here;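 note: potency is the fitted concentration of half-maximal effect; % of control where 0% means no effect; nearly all actives have a fitted effect of over 65% in size; a mitochondrial uncoupler was the plate control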
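Stable cell line, 250 cells/well, 12 h attachment; compounds pinned at 5 concentrations, 24 h; CCCP control. Fixed with nuclear dye, primary antibodies 12 h at 10 degrees C, secondary plus cell stain; laser-scanning cytometer read.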
Sfp inh: inhibitors of Bacillus subtilis Sfp phosphopantetheinyl transferase | Potency, µM, inactives show max response, negative = inhibition, actives largely listed as inhibitors | Biochemical Sfp PPTase activity, qHTS | 3.5% of 310,000 active; active = well fitted inhibition curve with a large enough effect; inconclusive = small, poorly fitted or top-dose-only effect, or another doubt; inactive = no such curve, though single readings can be large or run the other way;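 note: the enzyme is Sfp with the accession as filed and its product quenches rhodamine fluorescence; potency is the fitted concentration of half-maximal effect; 0% = enzyme reaction without inhibitor and -100% = no enzyme wells; top concentration of the series not given in the record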
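Step 1, compound plus 15 nM Sfp-PPTase, 15 min, room temperature. Step 2, add rhodamine-CoA (5 uM) and BHQ-2-YbbR (12.5 uM). Step 3, read 525/598 nm fluorescence at 0 and 30 min.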
TRPML1 inh: inhibitors of human TRPML1 channel. Q9GZU1. TRPML1-inducible cells, Ca2+ dye fluorescence, FDSS; stronger effect = lower value; inhibition of EC80 agonist-evoked calcium signal. activity change, negative = inhibition, % (test concentration not listed). 0.02% of 390,000 active. AID 624415; in the data active means activity change below about -50%; inconclusive means about -30% to -50%; inactive means above about -30%;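 note: stimulus is agonist 54-4 at its EC80 concentration; % is set by controls: 0 for no effect and ±100 for the full control effect; compound concentration not given in the record; the text of the record puts the active cut at -80%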
Target sequence (Q9GZU1 whole entry, looked up): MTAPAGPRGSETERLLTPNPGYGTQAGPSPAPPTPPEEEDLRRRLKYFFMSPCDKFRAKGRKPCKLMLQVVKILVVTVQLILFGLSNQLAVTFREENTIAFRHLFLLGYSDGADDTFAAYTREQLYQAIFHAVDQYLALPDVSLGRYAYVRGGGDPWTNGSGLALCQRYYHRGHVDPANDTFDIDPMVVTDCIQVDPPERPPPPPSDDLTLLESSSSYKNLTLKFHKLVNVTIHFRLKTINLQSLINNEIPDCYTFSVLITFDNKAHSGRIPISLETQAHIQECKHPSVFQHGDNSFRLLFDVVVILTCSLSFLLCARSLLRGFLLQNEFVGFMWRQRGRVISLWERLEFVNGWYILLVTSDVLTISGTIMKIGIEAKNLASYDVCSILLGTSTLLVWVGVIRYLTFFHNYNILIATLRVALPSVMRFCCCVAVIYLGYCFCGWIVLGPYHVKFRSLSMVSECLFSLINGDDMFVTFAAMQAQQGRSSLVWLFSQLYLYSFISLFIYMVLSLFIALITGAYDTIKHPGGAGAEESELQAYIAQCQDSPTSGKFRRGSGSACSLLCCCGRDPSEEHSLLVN
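Calcium fluorescence in TRPML1-DL cells induced overnight with Tet: a 110 s read after compound pin addition, then a 110 s antagonist read after challenge with 54-4 at 4 uM final (EC80).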
TRPV1 potentiator: human TRPV1 potentiation. Q8NER1. TRPV1-expressing cells, Fluo-8 calcium influx, capsaicin EC20 potentiation; host cell line not named in the record; control for the full effect not named in the record. potentiation, % at 8.33 µM. 0.02% of 320,000 active. AID 540277; active means potentiation above 80%; inconclusive means 30% to 80%; inactive means below 30%; note: 0% is about no effect
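Fluo-8 calcium influx in TRPV1-expressing cells, kinetic read (ex 480/em 520 nm). Compound added and read 3 min for agonist activity, followed by capsaicin at EC20 final and 2 min further read for enhancement.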
ClpP mod: qHTS Assay for Activators of ClpP; purified B. subtilis ClpP, FRET peptide cleavage, 20 min; Potency, µM (series often up to 57.5 µM), inactives show at the top dose activity change, negative = active; 1.9% of 340,000 active; ATP-dependent Clp protease proteolytic subunit (Bacillus subtilis (strain 168)), P80244; active = well fitted falling curve with a large enough effect; inconclusive = small, poorly fitted or top-dose-only effect; inactive = no such curve, though single readings can be large or run the other way; note: potency is the fitted concentration of half-maximal effect; the source files actives as falling curves though it sought activators and does not explain the sign; nearly all actives have a fitted effect of over 65% in size; many hits overshoot -100%
Target sequence (P80244 whole entry, looked up): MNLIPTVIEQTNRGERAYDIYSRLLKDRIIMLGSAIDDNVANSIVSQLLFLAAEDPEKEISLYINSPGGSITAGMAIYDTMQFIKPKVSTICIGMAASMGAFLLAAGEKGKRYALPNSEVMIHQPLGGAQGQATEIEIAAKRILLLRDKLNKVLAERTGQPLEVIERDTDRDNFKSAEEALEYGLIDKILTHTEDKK
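Buffer: 100 mM Tris/HCl pH8, 100 mM KCl, 0.05% low protease BSA, 2.5% glycerol, 0.01% Tween-20. ClpP 10 microg/mL final; 20 min RT; delta FRET normalized to ADEP and DMSO controls.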
Menin-MLL FL inh: inhibitors of human menin-MLL interaction, wild-type MLL peptide | Fluorescence polarization, fluorescein-MLL peptide displacement from menin | FP activity change, % at 61.4 µM | 290,000 tested, under 10 active; inconclusive = falling polarisation curve, or a change in total fluorescence; inactive = total fluorescence flat and polarisation flat or rising; no compound was filed as active; the % refers to the polarisation; negative = inhibition;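 note: % of control where 0% means no effect; inhibitors lower the polarisation; unlabelled MLL peptide was the positive control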
TRPML1 agonist: activates the human TRPML1 channel; Q9GZU1; TRPML1-expressing cells, Ca2+ dye fluorescence, FDSS; host cell line not named in the record; reference of the full effect not given here; activation, % (no concentration beside the values); AID 624414; 0.12% of 410,000 active; in the data active = activation above about 50%; inconclusive = about 30% to 50%; inactive = below about 30%; note: 0% is about no effect; the text of the record puts the active cut at 80%
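Kinetic FDSS Ca2+ read in Tet-induced TRPML1-DL cells (ABD Ca8 dye plus quencher, 45-90 min RT loading): baseline, then compound, then 110 s agonist window; EC80 agonist 54-4 at 4uM final added afterwards for a 110 s antagonist window.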
Active calls of the source: *; ? = inconclusive; nt = not tested or not shown; & = joins results of further samples; [ ] = remark or other dose.

SMILES	PINK1 modulator	Sfp inh	TRPML1 inh	TRPV1 potentiator	ClpP mod	Menin-MLL FL inh	TRPML1 agonist
COc1ccc(NC(=O)COC(=O)c2ccc(OCc3c(C)noc3C)cc2)cc1OC	-1.1%	5%	-1	-1	0.4%	2.7	-1.5
Cc1cccc(N2CCN(C(=O)NC(C)c3ccc(F)c(F)c3)CC2)c1C (stereo not given)	7.4%	10%	-8	-17	nt	2.0	-0.6
COc1cc(/C=C/C(=O)Nc2cccnc2)cc(OC)c1OC	1.5%	0%	9	-16	-19%	0.3	-0.9
CCc1cccc(NC(=O)CCS(=O)(=O)c2cc3c4c(c2)CCN4C(=O)CC3)c1	0.4%	nt	9	nt	-4.0%	nt	-1.1
O=C(/C=C/Nc1cccc(C(F)(F)F)c1)C(F)(F)F	2.5%[38.3 µM]	4%	-8	3	-0.3%	6.6	1.0
CCC(C)NS(=O)(=O)c1ccc(OCC(=O)NCC2CCCO2)cc1 (stereo not given)	nt	7%	-6	-7	-0.8%	2.5	0.7
COc1ccccc1NCCC(=O)O	0.3%	10%	nt	-6	-1.1%	-1.8	nt
CCOC(=O)c1cccc(NC(=O)c2ccc(-n3cnnn3)cc2)c1	7.1%	nt	-5	nt	nt	nt	-0.8
Cc1cc(NS(=O)(=O)c2c(C)[nH]c(=O)[nH]c2=O)ccc1Br	1.4%	10%	nt	-36	-1.4%	-0.2	nt
COc1ccccc1CNC(=O)COC(=O)c1ccc(S(=O)(=O)N2CCCCC2)cc1	9.9%	nt	4	nt	1.1%	nt	0.1
COc1ccc(C(=O)N/C(=C\c2cn(S(=O)(=O)N(C)C)c3ccccc23)C(=O)N2CCCC2)cc1	-0.1%	nt	2	nt	-0.8%	nt	-0.4
Clc1cccc(Cc2c(-c3ccco3)nc3ccc(Br)cn23)c1	0.1%	nt	-10	nt	-0.9%	nt	-0.5
CC(=O)N1CCc2cc(Br)cc(S(=O)(=O)CCC(=O)N3CCN(c4ccccc4Cl)CC3)c21	-0.4%	nt	-18	nt	-4.6%	nt	1.9
CCc1nnc(NC(=O)CCC(=O)NC2CCCCCC2)s1	-0.5%	11%	0	3	0.3%	1.8	-0.4
CCN(CC(=O)NCc1ccc(Cl)cc1)C(=O)CSCC(=O)Nc1cccc(C)c1	0.5%	6%	35	13	-0.1%	nt	-0.6
C(=C\c1ccccn1)/c1cccnc1	nt	7%	nt	-24	nt	1.0	nt
COc1cccc(/C=C(\C#N)C(=O)NC2CCS(=O)(=O)C2)c1 (stereo not given)	1.3%	18%	5	-2	-8.0%	2.2	-0.1
O=C(NCC(c1cccs1)N1CCOCC1)C1CCN(S(=O)(=O)c2cc(Cl)ccc2Cl)CC1 (stereo not given)	-0.7%	nt	6	nt	0.4%	nt	0.9
COC(=O)c1c(-c2ccc(Cl)cc2)noc1N1CCN(c2cc(C)ccc2C)CC1	0.6%	nt	-2	nt	-1.4%	nt	-0.2
COCCn1c(SCC(=O)Nc2ccc3[nH]c(=O)[nH]c3c2)nc2ccccc21	1.3%	nt	-14	nt	nt	nt	-1.0
CC1CCCN(C(=O)CCCNC(=O)c2ccc(Cl)cc2)C1 (stereo not given)	-0.4%	nt	-1	nt	1.2%	nt	-0.5
CCCOc1ccc(C(=O)NNC(=O)CCNC(=O)c2ccco2)cc1OC	-1.6%	nt	-4	-4	-2.9%	nt	0.8
CCCOC(=O)CCCC[C@H]1SC[C@@H](NC(=O)OC)[C@H]1NC(=O)OC	1.2%	-2%	-9	13	1.3%	1.7	0.3
CCOC(=O)c1cn(CC(=O)Nc2ccc(OC)cc2OC)nn1	-0.4%&2.6%	5%	-7&-15	3	-1.4%&1.9%	2.8	0.1&-0.5
Oc1ccccc1N1CCN(c2ncccn2)CC1	8.2%[38.3 µM]	11%	-7	-2	0.4%	-0.2	-0.4
CCOC(=O)c1c(-c2ccccc2)oc2ccc(N(C(C)=O)S(=O)(=O)c3ccc(C)cc3)cc12	8.5%	nt	-10	nt	4.1%	nt	-0.9
COc1cc2c(C(=O)N3CCN(c4ccccc4)CC3)c(C)oc2cc1Br	1.2%	0%	19	1	-1.6%	0.8	-0.4
COc1ccc(CN2C(=O)[C@@H]3C(c4ccccc4Cl)=NO[C@@H]3C2=O)cc1	0.2%	11%	15	-5	1.6%	-0.2	5.6
O=C(Nc1cccc(-c2cnc3ccccc3n2)c1)c1ccc(Cl)cc1	15%[38.3 µM]	-4%	-2	27	0.3%	-0.2	-0.6
COc1ccccc1CNC(=O)CCNS(=O)(=O)c1ccc2c(c1)CCCC(=O)N2	-1.2%	nt	-1	nt	2.5%	nt	1.0

One compound at a time (already shown):
C(=C\c1ccccn1)/c1cccnc1 as listed: PINK1 modulator = nt; Sfp inh = 7%; TRPML1 inh = nt; TRPV1 potentiator = -24; ClpP mod = nt; Menin-MLL FL inh = 1.0; TRPML1 agonist = nt
Cc1cccc(N2CCN(C(=O)NC(C)c3ccc(F)c(F)c3)CC2)c1C (stereo not given) as listed: PINK1 modulator = 7.4%; Sfp inh = 10%; TRPML1 inh = -8; TRPV1 potentiator = -17; ClpP mod = nt; Menin-MLL FL inh = 2.0; TRPML1 agonist = -0.6

Other records follow:
SMILES	PINK1 modulator	Sfp inh	TRPML1 inh	TRPV1 potentiator	ClpP mod	Menin-MLL FL inh	TRPML1 agonist
COCc1nc2oc3ccccc3c(=O)c2cc1C(=O)OC	-1.3%	6%	-4	8	-6.1%	3.9	1.4
Cc1nnc(NC(=O)c2ccc(S(=O)(=O)N3CCc4ccccc4C3)cc2)o1	0.4%	16%	-13	6	-2.1%	-0.5	0.0
CCOC(=O)c1cc(-c2ccccc2)n(CC(=O)Nc2ccc(OC)c(OC)c2)c1C	1.6%	-16%	-13	19	1.0%	1.2	0.4
O=C(c1cc(-c2ccccc2)on1)N1CCCc2ccccc21	1.2%	-9%	2	-11	0.7%	8.5	1.0
c1ccc2c(c1)CC/C2=N/Nc1nc2ccccc2[nH]1	16%	35µM*	-4	6	nt	1.2	0.6
CCCc1nc(SCc2ccccn2)c2c(=O)n(C)c(=O)n(C)c2n1	-0.8%	11%	6	nt	0.2%	1.9	0.8
CCS(=O)(=O)N1CCN(C(C)CCc2ccccc2)CC1 (stereo not given)	1.3%	-15%	11	-2	-1.0%	-0.3	1.0
CCc1ccc(CN(C)C(=O)c2ccc3c(c2)OCCO3)cc1	1.4%	7%	nt	2	-0.2%	4.4	nt
COc1ccc(Cl)cc1NC(=O)NC(C)c1ccncc1 (stereo not given)	0.6%[38.3 µM]	7%	-10	-11	-3.0%	0.1	-0.1
NC(=O)CC(NC(=S)NCc1ccccc1)C(=O)O (stereo not given)	1.9%	?	-11	-8	0.9%	0.6	-0.3
COc1ccc(CSCC(=O)N/N=C/c2ccccc2OCc2ccccc2)cc1	nt	12%	1	0	-0.4%	1.9	2.4
COc1ccc(OC)c(C(=O)c2coc3ccc(O)cc23)c1	13%[38.3 µM]	15%	5	-8	2.9%	-1.9	0.1
CN1CCN(CCOC2Cc3ccccc3Sc3ccc(Cl)cc32)CC1 (stereo not given)	-5.3%	-20%	-2	8	-2.3%	-1.0	2.4
NNC(=S)Nc1ccc(OC(F)(F)F)cc1	0.0%	11%	-10	-7	nt	-4.3	-0.1
Cc1cccc(NNC(=S)Nc2c(C)cccc2C)c1	0.5%	9%	19	-5	nt	1.5	2.1
O=S(=O)(Nc1ccc(Br)cc1)c1cccc(NC(=S)NCCN2CCOCC2)c1	0.6%	?	0	9	nt	0.7	0.4
Cc1ccccc1CN1CCN(C(=O)c2ccc(S(=O)(=O)NCc3ccco3)cc2)CC1	3.1%	nt	-11	-10	1.3%	nt	1.8
Cc1ncsc1C(=O)N1N=C2/C(=C/c3ccc(N4CCOCC4)cc3)CCCC2C1c1ccc(N2CCOCC2)cc1 (stereo not given)	4.5%[38.3 µM]	-1%	-5	2	-0.5%	?	-0.1
COc1ccccc1/C=C/C=N/n1c(-c2cc(-c3ccccc3)n[nH]2)n[nH]c1=S	3.1%	0%	8	nt	-0.8%	-1.7	1.2
CCCNS(=O)(=O)c1ccc(OCC(=O)Nc2ccccc2F)cc1	-2.1%	4%	6	-11	0.9%	-2.1	-0.5

Taken from the entries so far for reference:
SMILES	PINK1 modulator	Sfp inh	TRPML1 inh	TRPV1 potentiator	ClpP mod	Menin-MLL FL inh	TRPML1 agonist
COc1ccc(CSCC(=O)N/N=C/c2ccccc2OCc2ccccc2)cc1	nt	12%	1	0	-0.4%	1.9	2.4
COc1ccc(OC)c(C(=O)c2coc3ccc(O)cc23)c1	13%[38.3 µM]	15%	5	-8	2.9%	-1.9	0.1

(cont.)
SMILES	PINK1 modulator	Sfp inh	TRPML1 inh	TRPV1 potentiator	ClpP mod	Menin-MLL FL inh	TRPML1 agonist
O=C(Nc1ccc(N2CCOCC2)cc1N1CCOCC1)c1ccc([N+](=O)[O-])cc1Cl	-1.0%	14%	5	2	1.7%	nt	-0.2
COc1ccc(Br)c(C(=O)N2CCN(S(=O)(=O)/C=C/c3ccccc3)CC2)c1	-0.7%	11%	-18	-2	28µM*	-0.8	0.6
O=C(C[C@@H]1C[C@@H]2c3cc(NS(=O)(=O)c4ccc(F)cc4)ccc3O[C@@H]2[C@H](CO)O1)NCc1ccc(Oc2ccccc2)cc1	4.8%	nt	-13	nt	1.8%	nt	0.5
O=C(c1cccc(N2CCCC2=O)c1)N1CCN(c2ccc(F)cc2)CC1	-1.6%	13%	-7	29	0.2%	nt	-0.8
CC1CC(CCC(=O)NC(=S)Nc2ccc(S(N)(=O)=O)cc2)C(=O)O1 (stereo not given)	-0.4%	15%	14	9	nt	3.9	-0.3
COC(=O)c1ccc2c(=O)n(CCc3ccc(S(N)(=O)=O)cc3)c(SCC(=O)C(C)(C)C)nc2c1	14%	nt	-9	nt	47%	nt	1.7
COc1ccc(OCc2cc(C(=O)NC3CCc4ccccc43)no2)c(Cl)c1 (stereo not given)	5.9%	16%	15	12	-1.2%	nt	0.9
CN(C)S(=O)(=O)c1ccc(NC(=O)COc2ncnc3sccc23)cc1	2.7%	18%	7	1	nt	0.0	-0.7
COc1ccccc1NCC(=O)n1nc(C)cc1C	0.6%	-2%	-4	8	nt	1.7	-0.2
O=C(C1CC1)N1CCN(c2nc3c(F)cc(F)cc3s2)CC1	1.2%	nt	6	nt	-0.3%	nt	-0.9
O=C(NCc1cccnc1)c1cc(Cl)ccc1[N+](=O)[O-]	1.9%	7%	17	-4	-0.5%	nt	0.6
COc1ccc(N(C(=O)Cn2cnc3ccccc32)C(C(=O)NC2CCCCC2)c2ccccc2)cc1 (stereo not given)	nt	2%	0	20	-4.9%	-1.3	2.2

Assay outcomes (PubChem BioAssay)
